BJeLR viability: BJeLR cell viability loss; BJeLR (HRASV12) viability, CellTiter-Glo ATP luminescence, 48 h; reference of the scale not given here; inhibition, % (test concentration not listed); 0.17% of 300,000 active;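 active = replicate mean above 50%; inconclusive = above 50% but judged a plate artefact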;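 note: 50 nL library stock added to about 25 µL; numbers are from one replicate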
Mtb hypoxia rep: reduces hypoxia-regulated biosensor signal in M. tuberculosis; M. tuberculosis hypoxia-regulated fluorescent reporter, fluorescence; fluorescence inhibition, % (test concentration not listed); 0.1% of 300,000 active;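 active = 35 to 45% if threefold the growth effect, above 45% if 1.5-fold the growth effect; inactive = the rest, general growth blockers included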;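 note: wells of about 50 µL received 100 nL stock; 0% = vehicle wells and 100% = reference inhibitor wells; whole bacteria with a GFP reporter of the hypoxia response; strong numbers were not always called active; many hits fall short of the cut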
Bead autofluor: counter-screen for toxin protease inhibitors: compound fluorescence; compound autofluorescence counterscreen, microsphere flow cytometry; active compounds read high; fluorescence intensity (no concentration beside the values); 3.1% of 360,000 active; AID 624483;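 active = at least 3 SD above the mean of all compounds, about 16000 in these data; inconclusive = too few beads counted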;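 note: 100 nL of 1 mM stock went into each well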
Sa RN4220 lethal: kills Staphylococcus aureus RN4220; S. aureus RN4220 growth, OD600, 16 h; inhibition, % (no concentration beside the values); 0.33% of 330,000 active; AID 1259311;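 active = z-score of -3 or lower and OD600 up to 0.18 on both plates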;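 note: plate controls were untreated cells for no effect and reference antibiotic for full effect; stock transfer was 100 nL into about 80 µL; one replicate is shown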
Sa ugtP lethal: growth inhibition of S. aureus ugtP deletion strain; S. aureus RN4220 ugtP deletion, OD600 growth, 16 h; some inactives read as strong as hits; growth inhibition, % (no concentration beside the values); 0.54% of 330,000 active;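 active = z-score under -3 and OD600 up to 0.15 on both plates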;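 note: plate controls were untreated wells for no effect and antibiotic for full effect; wells of about 80 µL received 100 nL stock; the first replicate is given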
PrP UTR inh: suppresses PrP 5' UTR mRNA reporter expression; 0.35% of 340,000 active; cell-based PrP 5' UTR mRNA reporter, plate reader; AID 488862; inhibition, % (concentration not given with the values);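 active = every replicate at 50% or more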;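 note: 0 = median of the neutral control wells; tested in H4 reporter cells; numbers are from one replicate; inactives centre near -14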
Mtb hypoxia rep growth: recorded beside Mtb hypoxia rep, whose call it bears; growth inhibition, %; measured here: M. tuberculosis growth (absorbance);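 0% = vehicle and 100% = reference antibiotic; read after six days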
The depositor's hits bear a star; u = inconclusive; x = not tested or not shown.

SMILES	BJeLR viability	Mtb hypoxia rep	Mtb hypoxia rep growth	Bead autofluor	Sa RN4220 lethal	Sa ugtP lethal	PrP UTR inh
CCOc1ccc(C(C)(C)C)cc1S(=O)(=O)N1CC(C)OC(C)C1 (configuration not stated)	-6	x	x	2142	3.1	6	-7
Oc1ccc2ccccc2c1/C=N/Nc1nnc(-c2ncc[nH]2)c2ccccc12	28	x	x	9066	x	x	32
COc1ccccc1CNC(=O)c1cccnc1	-17	11	-2	x	3.2	-1	-13
Cc1ccc(C)c(S(=O)(=O)Nc2ccc3sc(C)nc3c2)c1	3	22	12	3114	5.3	5	-10
O=C(COc1ccc(S(=O)(=O)NC2CCCCC2)cc1)NCC1CCCO1 (configuration not stated)	6	10	5	4164	3.1	15	-43
O=C(O)/C=C/c1ccc(-n2ccnc2)cc1	-24	4	14	4720	2.6	9	-24
COc1cccc(N(CC(=O)N2CCN(c3ccccc3OC)CC2)S(C)(=O)=O)c1	-3	4	3	9802	1.4	-1	-6
O=C(COc1cccc2c1CCNC2=O)Nc1ccc(Cl)cc1	3	-6	7	5396	6.3	5	-1
CC(C)CN(C(=O)c1ccc(S(=O)(=O)N2CCOCC2)cc1)C1CCS(=O)(=O)C1 (configuration not stated)	9	-9	8	5352	-0.6	-2	0
CCc1cc(C(=O)N2CCN(S(=O)(=O)c3ccc(Cl)cc3)CC2)sc1C	x	-7	-2	2826	4.3	5	-15
CC(C)OCCCNC(=O)c1ccc(NS(C)(=O)=O)cc1	-6	-1	4	8818	3.8	-1	-31
CCCc1[nH]c(=O)c(C#N)c2c1COC(C)(C)C2	4	3	12	6392	0.1	0	-3
COc1cc(SC)ccc1C(=O)Nc1ccc(S(=O)(=O)N2CCCC2)cc1	6	15	9	2846	7.1	1	-7
COc1ccc(C(=O)Nc2ccc3nc(N4CCN(C)CC4)cc(C)c3c2)c(OC)c1	-3	12	10	4129	-2.7	19	-5
Cc1nc2ccccc2c(=O)n1NC(=O)c1c(F)cccc1F	-6	0	-2	3568	3.2	5	-16

Record cards, from the list above:
`CCOc1ccc(C(C)(C)C)cc1S(=O)(=O)N1CC(C)OC(C)C1` (configuration not stated) is entered as BJeLR viability: -6; Mtb hypoxia rep: x; Mtb hypoxia rep growth: x; Bead autofluor: 2142; Sa RN4220 lethal: 3.1; Sa ugtP lethal: 6; PrP UTR inh: -7
`Cc1ccc(C)c(S(=O)(=O)Nc2ccc3sc(C)nc3c2)c1` is entered as BJeLR viability: 3; Mtb hypoxia rep: 22; Mtb hypoxia rep growth: 12; Bead autofluor: 3114; Sa RN4220 lethal: 5.3; Sa ugtP lethal: 5; PrP UTR inh: -10
`O=C(COc1cccc2c1CCNC2=O)Nc1ccc(Cl)cc1` is entered as BJeLR viability: 3; Mtb hypoxia rep: -6; Mtb hypoxia rep growth: 7; Bead autofluor: 5396; Sa RN4220 lethal: 6.3; Sa ugtP lethal: 5; PrP UTR inh: -1

Next results
SMILES	BJeLR viability	Mtb hypoxia rep	Mtb hypoxia rep growth	Bead autofluor	Sa RN4220 lethal	Sa ugtP lethal	PrP UTR inh
Cc1cccc(N2CCN(Cc3nc(-c4ccccc4Cl)oc3C)CC2)n1	-12	-2	0	2542	1.7	5	-5
COc1ccc(S(=O)(=O)NC2CC2)cc1-n1cnnn1	-6	7	6	3886	3.1	0	0
COc1cc(Cl)c(C)cc1NC(=O)CN1CCN(C(=O)C2CC2)CC1	x	18	8	3561	4.1	2	-23
CC(C)C(=O)N(Nc1nc2ccccc2s1)C(=O)C(C)C	-5	1	-4	2186	3.8	3	-11
CC(C)CN1CCCC(N2CCN(c3cccc(Cl)c3)CC2)C1 (configuration not stated)	-1	9	0	3169	1.7	11	-23
COC(=O)c1ccc(C2=NOC(C)(c3sc(-c4ccccc4)nc3C)C2)cc1 (configuration not stated)	-3	-3	-3	3735	0.3	-8	-21
Cc1onc(-c2ccc(Cl)cc2)c1-c1ccnc(SCC(=O)Nc2ccc(C(C)C)cc2)n1	-8	-2	0	3890	-4.5	6	-21
CC(=O)NC(Cc1cc(C)ccc1C)C(=O)N1CCN(C(=O)c2ccccc2Br)CC1 (configuration not stated)	0	4	-8	2888	-0.3	-2	-2
CC(=NO)C1CCC2C3CCC4CC(=NO)CCC4(C)C3C(C)(O)CC12C (configuration not stated)	x	8	8	3905	12	-4	-6
Cc1ccc(S(=O)(=O)CCC(=O)Nc2nc3c(s2)CCCC3)cc1	-2	9	8	u	13	3	-9
CCCOc1ccc(Cl)cc1/C=C1/C(=O)ON=C1C	2	4	-6	3972	2.4	6	-21
c1ccc(CCCCN2C(Nc3ccccc3)=NC[C@@H]2Cc2ccccc2)cc1	x	0	12	3234	-15	-20	-24
CCN(CC)CC(C)(C)COC(=O)c1oc2ccccc2c1C	-3	-6	4	4160	2.0	14	-10
COc1ccc(NC(=O)c2cc(S(=O)(=O)N3CCCC3)cn2C)cc1Cl	-8	2	7	5237	5.3	2	-4
Cc1ccc(CNC(=O)c2nnn(CC(=O)Nc3cccc(C)c3C)c2N)cc1	6	1	3	5556	5.8	-4	2
Cc1nn(Cc2ccc(Cl)cc2)c(C)c1NC(=O)CCCn1nc(C)c([N+](=O)[O-])c1C	0	4	0	6900	-5.0	-3	-4
Cc1ccc(C)c(S(=O)(=O)N2CC(=O)Nc3ccccc32)c1	7	7	5	4893	1.7	-6	-24
COc1ccc(NC(=O)CN2CCN(c3ccccc3C)CC2)cc1	8	-4	-3	4066	5.7	2	-17
CCCn1c2ccccc2c2nnc(SC(CC)C(=O)Nc3cc(C)on3)nc21 (configuration not stated)	5	-2	7	2893	6.1	-3	-17
Cc1cc(C)c(S(=O)(=O)N2CCOC2CNC(=O)C(=O)NCCCn2ccnc2)c(C)c1 (configuration not stated)	7	1	11	4895	2.8	7	-10
O=C(CN1CCN(c2ccccc2)CC1)Nc1c(C(=O)C2CC2)oc2ccccc12	-2	1	1	20951*	0.5	27	-14
COc1ccc(CCNC(=O)COC(=O)c2ccc(OC)cc2OC)cc1	x	3	12	5873	2.4	1	3
COc1ccc2c(C=NNS(=O)(=O)c3ccc(C)cc3)c[nH]c2c1	x	3	-10	x	2.1	4	x
CCOc1nc(-c2ccc(OC)cc2)ccc1-c1noc(C)n1	2	-1	0	21728*	4.1	3	-15
Cc1c(Nc2ncnc3c2cnn3-c2ccccc2)c(=O)n(-c2ccccc2)n1C	12	2	3	6827	1.7	1	-5
C[C@]12c3[nH]c4ccccc4c3CCN1C(=O)C(CC(=O)NCC13CC4CC(CC(C4)C1)C3)C[C@@H]2C(=O)N1CCOCC1 (some centres not stated)	x	-1	0	3055	-2.8	4	-10
O=C(CN1CCN(CC(=O)Nc2cccc(F)c2)CC1)NCC1(N2CCOCC2)CCCCC1	x	4	-1	3017	3.3	9	-11
CC(C)S(=O)(=O)c1ccc(C(=O)Nc2ccc(F)cc2F)cn1	8	-7	-7	4249	-4.3	13	-17
Cc1cc(C)c2nc(-c3ccccn3)cc(C(=O)n3cccn3)c2c1	-3	1	6	4477	1.6	13	-12
CC1(C)Oc2cc(N)c([N+](=O)[O-])cc2O1	1	x	x	3290	-3.2	-11	-12
O=C(CON=Cc1ccccc1OC(F)F)N1CCc2ccccc21	x	9	-1	x	0.5	7	x
COc1ccc(S(=O)(=O)N2CCCOC2CNC(=O)C(=O)NCc2ccccc2F)cc1C (configuration not stated)	-5	-7	4	6161	1.9	0	13
N#CC(CCc1ccccn1)c1ccccc1 (configuration not stated)	x	8	5	2971	2.3	2	-10
Nc1nc2ccc(C(=O)NC3CCCCC3)cc2s1	-1	11	10	3006	-12	-26	-13
CCN(CC)S(=O)(=O)c1ccc(N/N=C(\C)c2cccnc2)nc1	-2	x	x	3699	x	x	-101
O=C(C1CCCN(S(=O)(=O)c2cnc[nH]2)C1)N1CCN(Cc2ccccc2)CC1 (configuration not stated)	-5	x	x	5347	0.5	1	-26
Cc1cc(Br)ccc1SCC(=O)OCC(O)=C(C#N)c1nc2ccccc2[nH]1	x	5	0	4056	10	-9	-21
COc1ccc(/C=C(\NC(=O)c2ccco2)C(=O)N2CCOCC2)cc1	0	0	-3	3000	1.6	5	-17
Fc1ccccc1C1c2[nH]c3ccccc3c2CCN1Cc1cccn1-c1ncccn1 (configuration not stated)	6	-1	-7	3384	-0.8	2	-9
O=C(N/N=C1/CCSC1)c1cc(Br)ccc1O	7	x	x	4499	x	x	-6
O=S(=O)(Nc1n[nH]c(C(F)(F)F)n1)c1ccccc1	-4	3	8	4678	8.1	3	-17
Cc1cc(NC(=O)c2ccccc2Cl)c(C(C)C)cc1O	2	-7	-4	9691	1.1	-2	2
COc1cccc(C(=O)N(Cc2ccccc2)Cc2cc3cc4c(cc3[nH]c2=O)OCCO4)c1	-4	2	4	20933*	3.2	-4	1
O=C(Nc1nnc(-c2cccnc2)o1)c1cccc(Cl)c1	3	-7	16	4979	38	24	-1
O=C(NC(=S)Nn1cnnc1)c1ccccc1	8	4	3	3603	3.9	-5	-6
Cc1nc2sc3c(c2c(=O)o1)CC(C)(C)OC3	0	x	x	4148	-0.3	9	-6
CCOC(=O)N1CCN(C(=O)c2cccn3c(=O)c4sccc4nc23)CC1	x	6	15	22718*	2.7	-2	1
CC1Cc2ccccc2N1C(=O)CSc1nc2ccccc2o1 (configuration not stated)	-3	-2	4	16258*	14	9	-21
O=C(c1ccc(=O)[nH]c1)N(Cc1cccs1)C1(C(=O)NC2CCCC2)CCCCC1	-1	-2	1	2033	-0.4	1	-12
COc1ccc(CNC(=O)COC(=O)c2c(C)nn(-c3ccccc3)c2C)cc1OC	x	2	10	5083	5.1	6	-15
C=CCNC(=S)NNC(=O)c1ccc(C)c(Cl)c1	-2	9	2	3779	8.7	2	-13
Cn1c(-c2ccc(Cl)cc2)cnc1N	x	9	10	u	4.5	3	-19
CN(C)c1ccc(C=Nn2cnn(Cc3ccccc3Cl)c2=S)cc1	x	-9	1	x	-6.3	3	x
COc1ccc(CCN2CC(C(=O)Nc3ccccc3F)CC2=O)cc1OC (configuration not stated)	10	13	5	4956	-0.2	3	-23
O=C(CSc1nnc2c(Cl)cc(Cl)cn12)N1CCN(S(=O)(=O)c2ccccc2)CC1	-1	15	15	4222	1.7	-3	-14
COc1ccc(-n2c(SCC(=O)Nc3ccccc3OC)nc(O)cc2=O)cc1	0	12	1	3165	3.2	8	-26
CC(=O)[C@@H]1[C@@H](C)N(Cc2ccccc2)C(=O)N[C@H]1c1ccccc1	5	x	x	3762	x	x	-10
Cn1c2c(c(=O)n(C)c1=O)C1c3cc(Cl)ccc3OCC1CO2 (configuration not stated)	-10	x	x	2459	8.9	-2	-5
COCCN1C(=O)NC(c2cccs2)C(C(C)=O)=C1C (configuration not stated)	x	2	19	x	-2.9	-11	x
COc1ccc(-n2c(-c3ccccc3)nnc2-c2ccc(Cl)cc2)cc1	1	x	x	2353	-0.2	-3	-16
(further entries)
SMILES	BJeLR viability	Mtb hypoxia rep	Mtb hypoxia rep growth	Bead autofluor	Sa RN4220 lethal	Sa ugtP lethal	PrP UTR inh
COc1ccc2ccccc2c1CN1CCN(C)CC1	-5	9	5	19346*	1.9	-5	-11
Cc1ccc(S(=O)(=O)N2CCC(C(=O)OC(C)C(=O)NCc3ccc4c(c3)OCO4)CC2)cc1 (configuration not stated)	-10	-6	-2	23314*	-0.3	0	-8
CCCCc1cc(=O)oc2c3c(cc(OCC(=O)NCCCO)c12)OC(C)(C)CC3	15	3	3	4043	1.2	3	-14
CCSc1nnc(NC(=O)COc2ccc3ccccc3c2)s1	-1	-3	-3	3484	-4.3	-6	-7
CSCCC(NS(=O)(=O)c1ccc2ccccc2c1)C(=O)OCC(=O)c1ccc(C(C)C)cc1 (configuration not stated)	8	10	0	7995	14	-2	-11
CN(C)N=Cc1ccc(OC(=O)c2cccc([N+](=O)[O-])c2)cc1	x	-4	1	x	10	7	x
COc1ccccc1[C@@H]1C(c2ccccc2)=NN(c2ccc(Br)cc2)[C@H]1C(=O)N1CCOC1=O	x	-1	7	3264	-7.6	3	7
C=CCN(C(=O)CNC(=O)c1cccs1)C(C(=O)NC1CCCCC1)c1cccnc1 (configuration not stated)	2	3	-2	2631	4.2	0	-15
O=C(CNC(=O)c1ccncc1)N/N=C/c1ccccc1[N+](=O)[O-]	1	x	x	2536	x	x	-13
